Assay outcomes as filed in PubChem BioAssay.
CSC inhib = cancer stem cell inhibition; cancer stem cell-like cells viability, luminescence; inhibition, % at 7.5 µM; 1.1% of 300,000 active; AID 2717;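 active = mean at 75% or more and at least half the replicates too; inconclusive = mean and replicates disagree; tested in HMLE shEcad cells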;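 also: 0% = median of negative and 100% = median of positive control wells; the first replicate is given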
PABP FP inh = PABP-poly(A) binding inhibition; PABP-poly(A) RNA binding, fluorescence polarization; 1% of 290,000 active; AID 2014; inhibition, % at 35 µM;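 active = 50% or more with normal probe brightness, or confirmed in later tests; inconclusive = above 50% with abnormal brightness, or retests that disagree; inactive = below 50% or failed in later tests; about a fifth of its hits are not listed in these tables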;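 also: calls also rest on retests at 20 µM and on dose response follow-up; controls were probe without protein and protein plus probe with vehicle; some compounds called inactive have numbers as strong as hits; many hits fall short of the cut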
UUG fidelity = modulators of start codon recognition fidelity in yeast | S. cerevisiae UUG-firefly luciferase reporter, luminescence/redox ratio | activity score, % at 18.7 µM | 0.13% of 350,000 active | AID 602363;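 active = replicate mean at a twofold rise or more, about +100% in these data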;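 also: firefly luciferase made from a UUG start codon reports start codon fidelity; reporter light over untreated wells divided by growth signal over untreated wells; some hits fall short of that in this replicate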
MT1-MMP act inh = blocks activation of human MT1-MMP. 0.061% of 360,000 active. P50281. AID 651647. GFP/RFP ratio change, % at 20 µM. HT1080 RFP-PRO-GFP cells, GFP/RFP ratio fluorescence, overnight; percent of plate control window, DMSO zero;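 active = GFP/RFP ratio change of at least 30% with cell ATP level not reduced by more than half and red fluorescence within 50% of control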; also: strong numbers were not always called active
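system = RFP-PRO-GFP reporter HT1080 cells | dosing = 20 µM single dose, 1% DMSO | timing = overnight cell settling, then overnight compound exposure, 37 °C, 5% CO2 | read-out basis = GFP/RFP fluorescence ratio | controls = DMSO and RFP-L50D-GFP cell wells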
Rce1 inhib = yeast Ras-converting enzyme inhibition. AID 2563. yeast membranes, quenched prenylated peptide cleavage fluorescence. 0.27% of 290,000 active. calls only;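 active = fall in fluorescence gain of 50% or more versus controls, with final raw signal at or below 3038400; inconclusive = same 50% fall but final raw signal above 3038400; inactive = fall in fluorescence gain under 50%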;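 also: plate controls were neutral control wells for no effect and wells lacking membranes for full effect; tested at 10 µM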
Target sequence (Q03530 whole entry, looked up): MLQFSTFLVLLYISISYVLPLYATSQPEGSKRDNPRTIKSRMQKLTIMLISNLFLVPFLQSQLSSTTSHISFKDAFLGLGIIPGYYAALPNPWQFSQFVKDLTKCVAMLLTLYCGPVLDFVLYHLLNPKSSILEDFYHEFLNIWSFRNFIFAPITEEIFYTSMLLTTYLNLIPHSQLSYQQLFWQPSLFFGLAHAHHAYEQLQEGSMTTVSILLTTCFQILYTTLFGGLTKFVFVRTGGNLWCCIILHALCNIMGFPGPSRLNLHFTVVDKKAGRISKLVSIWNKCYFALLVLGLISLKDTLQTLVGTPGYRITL
eIF4H inh = inhibitors of RNA binding by human eIF4H; Q15056; eIF4H fluorescence polarization binding assay; inhibition, % at 35 µM; 0.94% of 290,000 active;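 active = 50% or more with normal probe brightness, or confirmed in later tests; inconclusive = above 50% with abnormal brightness, or retests that disagree; inactive = below 50% or failed in later tests; about a fifth of its hits are not listed in these tables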;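 also: calls also rest on retests at 20 µM and on dose response follow-up; 0% = protein and probe with vehicle and 100% = probe without protein; strong numbers were not always called active; many hits fall short of the cut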
HIV Env fusion = blocks HIV Env-driven cell-cell fusion; HeLa-JRFL Env/CEM21 cell fusion, luciferase; inhibition, % at 12.3 µM; 1.1% of 360,000 active;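 active = mean replicate inhibition score of at least 50 and every replicate individually at or above 50; inconclusive = only one of the two criteria met; inactive = mean below 50 and not all replicates reaching 50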;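 also: 0% = plate neutral controls and 100% = maraviroc near 300 nM; one replicate is shown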
MT1-MMP act inh RFP = second read-out of MT1-MMP act inh, no call of its own (marks repeat the call); RFP signal change, %; measured here: RFP expression control read;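 0 = vehicle wells; hits needed this value within 50% of zero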
The depositor's hits bear a star; i = inactive; ? = inconclusive; · = no result given.

Order of values: CSC inhib, PABP FP inh, UUG fidelity, MT1-MMP act inh, MT1-MMP act inh RFP, Rce1 inhib, eIF4H inh, HIV Env fusion
> CCC(C)NC(=O)Cn1c(=O)sc2ccccc21 (centres undefined)
    -6, -9, -17, 3, 6, i, -2, 0
> Cn1c(=O)cc(SCC(=O)NCC2CCCO2)c2ccc(Cl)cc21 (centres undefined)
    ·, 2, ·, 3, -2, i, 8, -5
> CN1C(=O)/C(=C2\SC(N)=NC2=O)c2ccccc21
    -3, -3, -10, 8, -10, i, 18, ·
> COc1ccc(NC(=S)NC23CN4CN(CN(C4)C2)C3)c(OC)c1
    4, -4, ·, 0, 8, i, -7, -1
> Cc1cc(=O)[nH]c(SCC(=O)Nc2ccc(C(=O)O)cc2)n1
    2, 7, -16, 0, 5, i, 0, -42
> CNC(=O)c1ccc(Nc2nnc(-c3ccc(C(N)=O)cc3)c3ccccc23)cc1
    -12, 4, -4, ·, ·, i, 1, 30
> CC1CCCC(C)N1C(=O)COc1ccc([N+](=O)[O-])cc1Cl (centres undefined)
    -8, -14, ·, 4, -1, i, -4, 11
> COc1cccc(/C=N/Nc2nn3cnnc3c3ccccc23)c1O
    16, 7, -18, 8, 0, i, 10, ·
> O=C(Cc1cscn1)c1ccc(O)cc1O
    -4, 4, 16, 4, 3, ·, 5, ·
> O=C1C(c2ccc(F)cc2)N(C2CCCCC2)C(=O)CN1C1CCCC1 (centres undefined)
    -11, 4, 15, 13, -2, i, -7, 8
> CC(C)C[C@H](NC(=O)NCc1ccc(Cl)cc1)C(=O)O
    -1, 16, -13, 7, 7, i, 3, ·
> Cc1cccc(C)c1NC(=O)CS(=O)CC(=O)NCC1OCCc2ccccc21 (centres undefined)
    -13, 5, ·, 2, -1, i, -8, 24
> CC1Cc2ccccc2N1C(=O)COc1cccc(-n2cnnn2)c1 (centres undefined)
    -11, -12, -14, 1, 2, i, -7, i
> CC(C)C(c1nnnn1Cc1cccs1)N1CCN(C(=O)c2ccco2)CC1 (centres undefined)
    -8, -2, ·, -1, 3, i, -11, 12
> CO/N=C/c1cc([N+](=O)[O-])ccc1Sc1ccc(C)cc1
    9, 6, -17, 4, 1, i, -3, 10
> O=C(c1cn(Cc2ccccc2)nc1-c1cccnc1)N1CCN(Cc2c(F)cccc2Cl)CC1
    -1, ·, -3, -5, -1, ·, ·, -14
> CCOC(=O)c1ccc(NS(=O)(=O)c2cc3c4c(c2)CCN4C(=O)CC3)cc1
    -5, ·, -3, 3, -8, i, ·, ·
> C=CCOc1c(CNC2CCCC2)cc(Cl)cc1OC
    -19, 1, -16, -6, -2, i, -1, -26
> CCN(Cc1ccccc1)S(=O)(=O)c1cn(C)cn1
    -1, ·, ·, -2, 0, i, ·, -4
> COC(=O)COc1ccccc1C(=O)Nc1ccc(OC)cc1
    -18, 3, ·, -2, -1, ·, 11, -5
> Cc1nonc1NC(=O)c1ccc(Cl)c(S(=O)(=O)N2CCCCC2)c1
    -9, 21, -31, -6, -5, ·, 3, ·
> COc1ccc(-n2cc(C#N)c(=O)n(Cc3ccc(F)cc3)c2=O)cc1
    8, 4, ·, 1, 1, i, 17, -21
> O=C(NCc1ccccc1)c1ccc2nnsc2c1
    11, 1, -3, 5, 5, i, -4, -11
> CCNC(=S)Nc1ccc(Cl)cc1
    -13, -16, -15, 0, 5, i, 0, 6
> COc1ccc(CNC(=O)CN2C(=O)NC(C)(c3ccc(C(C)(C)C)cc3)C2=O)cc1 (centres undefined)
    8, 3, 1, 0, -5, i, 3, 12
> CCOC(=O)/C(=C\c1ccc(Cl)cc1)c1nc2sc(C)c(C)c2c(=O)[nH]1
    118*, -2, -9, -17, -16, i, -2, -90
> Cc1ccc(C(=O)N/N=C(\CC(C)C)c2ccccc2)cc1
    0, 5, -19, 2, 6, i, 2, -24
> COc1cccc(C2CC(c3ccc(C)cc3)Nc3nc(N)nn32)c1 (centres undefined)
    ·, -4, -11, 5, 2, i, 2, 9
> CCCN(CCC)S(=O)(=O)c1cc(Br)cc2c1N(C(=O)CC)CC2
    8, 0, -19, 5, 4, i, 0, ?
> CCOC(=O)C1CCCN(CC(=O)Nc2c(C(=O)OC)[nH]c3ccc(Br)cc23)C1 (centres undefined)
    -18, 5, -28, 1, -7, i, 2, ·
> O=C(c1ccc(S(=O)(=O)c2ccc(F)cc2)c([N+](=O)[O-])c1)N1CCCCCC1
    33, 2, 37, -9, -27, i, 2, 44
> CCc1ccccc1NC(=O)CN(C)C(=O)CSc1nn(-c2ccc(F)cc2)c(=S)s1
    ·, 5, ·, 8, 6, i, -3, 13
> CCN(CC)S(=O)(=O)c1cc(C(=O)Nc2cc(C)on2)ccc1Cl
    -9, 12, -9, 2, -5, i, -1, 13
> CCC(CC)NC(=O)c1ccc(Cl)cc1
    ·, 30, ·, 2, 3, i, 0, ·
> CCOc1ccccc1N(CC(=O)NC1CCCC1)C(=O)CNC(=O)c1cccs1
    1, 14, 4, 2, 3, i, -9, 9
> O=C(Nc1ccsc1C(=O)O)c1ccccc1Cl
    -2, 6, -22, 4, 2, i, -3, -24
> Cc1ccccc1NC(=O)c1cccc(N2C(=O)C3CCCCC3C2=O)c1 (centres undefined)
    -2, -2, -10, -3, -1, i, 5, 1
> CCCCc1nc2cc(C(=O)N3CCCC(OCCC)C3)ccc2o1 (centres undefined)
    -8, -5, 3, -2, -4, i, -7, -21
> NNC(=O)COc1ccc2oc3c(c2c1)CCCC3
    ·, 9, -10, -1, 2, i, -3, -11
> Fc1ccc(-c2nc3c4ccccc4ccn3c2Cc2ccsc2)cc1
    ·, ·, -18, 0, 2, ·, ·, 57*
> CC(C)c1ccc(OCC(=O)NNC(=S)NC(=O)c2cccs2)c(Br)c1
    -9, 1, -20, 5, 6, i, 10, 15
> O=S(=O)(NCC(c1cccnc1)N1CCN(Cc2ccccc2)CC1)c1ccccc1 (centres undefined)
    -11, 11, 5, 1, 4, i, -3, -69
> CCN(CC)S(=O)(=O)c1ccc(NS(=O)(=O)CC23CCC(CC2=O)C3(C)C)cc1 (centres undefined)
    7, -3, ·, 1, -1, i, -1, ·
> C(=N\c1c(-c2ccccc2)nc2n1CCS2)/c1ccccc1
    ·, -4, -16, -8, -1, i, -6, -6
> COCCNc1ccc([N+](=O)[O-])cc1C(=O)NC1CCCc2ccccc21 (centres undefined)
    12, 2, -9, -7, -7, i, 9, 0
> O=C(O)c1ccc([N+](=O)[O-])c(CS(=O)(=O)c2ccc(Cl)cc2)c1
    -3, 13, ·, 2, 8, i, -6, -38
> CSCCC(NS(=O)(=O)c1ccc(C)cc1)C(=O)N1CCN(S(=O)(=O)c2ccc(F)cc2)CC1 (centres undefined)
    -14, ·, -13, -4, -2, i, ·, -16
> COc1ccc(/C=N/NC(=O)CCNc2n[nH]c(=O)[nH]c2=O)c(OC)c1
    8, 15, -25, -1, 3, i, -7, 5
> COc1ccc(NC(=O)CCOc2cc(C)ccc2C)cc1S(=O)(=O)N1CCCCC1
    -13, ·, -12, -2, -20, ·, ·, 12
> COC(=O)Cn1c(=O)c2c(nc3n2CC(C)CN3Cc2ccccc2)n(C)c1=O (centres undefined)
    -2, 11, ·, 1, -2, i, -4, 20
> COc1ccc(OCC(=O)Nc2ccc3oc(-c4ccncc4)nc3c2)cc1
    -1, -11, -13, 0, 0, i, -18, 13
> CC1=C(C(=O)N(C)C)CC(CC(=O)NCCc2ccccn2)C(=O)N1CCCN1CCCC1=O (centres undefined)
    ·, ·, 101*, 3, 7, ·, ·, -13
> Brc1ccc(C2=CSC3=NCCN23)cc1
    -1, -2, -13, -1, 1, i, -2, -3
> Cc1ccc(C(=O)N2[C@@H]3CN(C)C(=O)[C@@]2(Cc2ccccc2)[C@H]2C(=O)N(C)C(=O)[C@@H]32)cc1
    ·, ·, -16, -2, -1, ·, ·, 20
> O=C(c1cccs1)N(Cc1ccc(F)cc1)C1CCS(=O)(=O)C1 (centres undefined)
    -10, 15, -2, -2, 3, i, -4, -11
> CCOC(=O)c1sc(NC(=O)CSc2nc3ccccc3o2)c(C(=O)OCC)c1C
    1, 29, -14, -3, -5, i, -4, -20
> O=C(NCC(c1ccco1)N1CCN(c2ccc(F)cc2)CC1)C(=O)NC1CC1 (centres undefined)
    0, ·, -17, 2, -5, i, ·, -47
> Cc1ccc(NC(=O)C2C3CCC(O3)C2C(=O)O)c(Br)c1 (centres undefined)
    0, -2, -7, 2, 2, i, -3, -246
> Cc1ccc(C)c(-n2ccnc2SCC(=O)Nc2cccc(S(=O)(=O)NC3=NCCC3)c2)c1
    -3, ·, -8, -4, -4, ·, ·, 13
> CCn1c(=O)c(C(=O)Nc2ccc(C)cc2)c(O)c2ccccc21
    -6, 2, 4, 5, -2, i, -6, 4

The results go on.
Order of values: CSC inhib, PABP FP inh, UUG fidelity, MT1-MMP act inh, MT1-MMP act inh RFP, Rce1 inhib, eIF4H inh, HIV Env fusion
> C=C[C@@H]1c2ccccc2N(S(=O)(=O)c2ccc(C)cc2)[C@H](c2ccccc2)C1(C#N)C#N
    21, ·, -13, 0, -14, ·, ·, ?
> CC(C)C(=O)Nc1ccc(NC(=O)c2cccc3c(Br)cccc23)cc1
    -5, 2, -16, 4, 6, i, 4, 12
> Cc1sc2nc(COC(=O)CNC(=O)c3ccc(C(C)(C)C)cc3)[nH]c(=O)c2c1C
    -12, 22, ·, 0, 7, i, 4, ·
> COc1cc(OC)c2c(c1)O/C(=C\c1ccccc1)C2=O
    4, ·, 16, 2, -8, i, ·, -27
> O=C(Nc1cccc(C(F)(F)F)c1)c1cc(-c2cccs2)on1
    0, 11, -20, 5, 4, i, 1, -82
> O=C(Nc1ccccc1C(F)(F)F)c1cccnc1
    -22, 2, -12, -4, 4, i, -4, -42
> COc1ccc(NC(=O)C2Cc3c(-c4ccccc4Oc4ccccc4)ccnc3O2)cc1OC (centres undefined)
    ·, ·, 5, 12, -28, ·, ·, 67*
> COc1ccccc1-c1nn(-c2ccccc2)cc1C(=O)N1CCc2ccccc2C1
    -12, ·, -13, 1, -2, ·, ·, ·
> CC(NC(=O)c1ccccc1NC(=O)CSc1nnnn1C)c1ccccc1 (centres undefined)
    -4, -4, -11, 5, 7, i, 0, ·
> O=C1CC(c2ccccc2)=NO1
    ·, ·, -17, 0, 5, ·, ·, -1
> COc1cc(/C=C2\SC(=O)N(CCNC(=O)c3c(C)noc3C)C2=O)cc(OC)c1OC
    -9, ·, ·, 5, 1, ·, ·, 0
> CCOC(=O)c1[nH]c2ccc(Br)cc2c1NC(=O)CCN1CCN(C(=O)OCC)CC1
    12, 12, -16, 0, -3, i, 2, -51
> O=C(COC(=O)Cc1c[nH]c2ccccc12)Nc1cccc(Br)c1
    ·, ·, -6, -2, 6, ·, ·, -30
> COc1ccccc1CCNS(=O)(=O)c1cn(C)c(=O)n(C)c1=O
    -9, -7, ·, -5, -1, i, -10, -13
> CCCCn1c(=O)c(CCC(=O)OC(C)C(=O)Nc2cccc(Cl)c2Cl)nc2ccccc21 (centres undefined)
    -10, -8, -3, -3, 1, i, -14, 21
> Cn1cnc2cc(NC(=O)c3ccco3)ccc21
    1, -4, -23, 3, 2, i, -17, ·
> CCN(CC)S(=O)(=O)c1ccc(C)c(NC(=O)COc2ccc(Cl)cc2Br)c1
    9, -5, -6, -3, 2, i, -7, ·
> CCOC(=O)C(C)Sc1nnc(Cc2cc(=O)[nH]c(=O)[nH]2)n1-c1ccc(Cl)cc1 (centres undefined)
    -20, -4, -5, -27, 4, i, 2, ·
> Cc1ccc(Cl)cc1NC(=O)CN1C(=O)NC2(CCCCCC2)C1=O
    -3, ·, -13, -1, 0, ·, ·, ·
> c1ccc(C2(Cn3ccc4ccccc43)OCCO2)cc1
    11, 6, -10, -6, -3, i, 16, -3
> COC(=O)CSc1nc(C)c(C(C)=O)cc1C#N
    -9, 1, 0, 0, 4, i, 2, -188
